# High-throughput results deposited in PubChem by Broad Institute.
# Beta apoptosis: blocks beta cell apoptosis. INS-1E cytokine-induced death, ATP luminescence, 48 h; percent of positive-control rescue, neutral wells zero. protection from apoptosis, % (test concentration not listed). 300,000 tested, 0.8% active. AID 435005;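 active means all replicates at 75% or more, or half of them and the mean; inconclusive means half reach 75% but not the mean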;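 further: 0% = cytokine-treated negative control wells and 100% = positive control rescue; higher means more ATP so stronger rescue from cytokine killing; wells of about 40 µL received 100 nL stock; the first replicate is given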
# Calb FLC: C. albicans growth modulation with fluconazole | C. albicans CaCi-2 (fluconazole-resistant clinical isolate) + fluconazole, Alamar Blue growth, 48 h | growth inhibition, % (concentration not given with the values) | 300,000 tested, 0.57% active | AID 1979;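 active means most replicates above 75%; inconclusive means exactly half above 75%; inactive means most below 75%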;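 further: all wells also contain fluconazole at 8 µg/ml as a sub-toxic cotreatment; 0% = median of DMSO wells and 100% = median of geldanamycin control wells; wells of about 8 µL received 7.5 nL stock; the first replicate is given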
# FGF22 binding: FGF22 (human) thermal shift binding; calls only at 9.99 µM; Q9HCT0; AID 651658; recombinant FGF22 thermal shift, SYPRO orange fluorescence; percent of sucrose octasulfate shift, DMSO zero; 340,000 tested, 1.5% active;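 active means melting point raised past a set limit in the mean and every replicate; inconclusive means no clear call; three in four hits are not shown here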
# Target sequence (Q9HCT0 whole entry, looked up): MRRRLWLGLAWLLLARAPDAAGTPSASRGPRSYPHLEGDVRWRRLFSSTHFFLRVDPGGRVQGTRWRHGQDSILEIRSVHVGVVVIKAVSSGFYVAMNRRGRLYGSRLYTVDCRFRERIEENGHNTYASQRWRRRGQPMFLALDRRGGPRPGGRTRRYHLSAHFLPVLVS
# RanGTP-Imp inh: inhibitors of RanGTP-importin-beta interaction, primary screen, biochemical, FRET, CFP-Ran, YFP-importin-beta, homogeneous. cell-free CFP-Ran/YFP-importin-beta FRET ratio. inhibition, % (concentration not given with the values). 300,000 tested, 1.1% active;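 active means most replicates above 15%; inconclusive means exactly half above 15%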;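 further: 0% = DMSO wells and 100% = Ran loaded with GDP instead of GTP; wells of about 40 µL received 100 nL stock; the first replicate is given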
# ALR inh: human ALR oxidase inhibition via reduced H2O2. P55789. purified ALR, DTT oxidation, H2O2 HRP-luminol luminescence. inhibition, % (concentration not given with the values). 290,000 tested, 3.8% active;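 active means mean and each replicate at 75% or more; inconclusive means only one of the two met; inactive means neither met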;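 further: stock transfer was 7.5 nL into about 7.5 µL; 0% = neutral wells and 100% = wells with inactivated enzyme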
# Target sequence (P55789 whole entry, looked up): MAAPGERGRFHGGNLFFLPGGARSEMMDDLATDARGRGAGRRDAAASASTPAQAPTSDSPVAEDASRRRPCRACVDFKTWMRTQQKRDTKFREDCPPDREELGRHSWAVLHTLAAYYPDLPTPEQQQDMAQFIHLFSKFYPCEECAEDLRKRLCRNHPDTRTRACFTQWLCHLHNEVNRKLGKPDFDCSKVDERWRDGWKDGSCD
# rRNA inh HTS: selective bacterial rRNA inhibition in E. coli; E. coli WT GFP vs humanized-ribosome RFP mutants, fluorescence, 24 h; hits give low values; DMSO median 0, no signal -100; GFP signal change (wild-type ribosome), % (concentration not given with the values); 350,000 tested, 1.6% active; AID 720706;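 active means significant combined selectivity score with lowered wild-type GFP, culture density cut under 30%, mutant RFP and density less affected; inactive means any of these conditions unmet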; further: one replicate is shown; some compounds called inactive have numbers as strong as hits
# T cruzi inh: blocks replication of Trypanosoma cruzi | inhibition, % (test concentration not listed) | T. cruzi beta-gal in NIH3T3, luminescence, 90 h | 300,000 tested, 1.4% active;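 active means mean inhibition across valid replicates above about 55%, limit read from the data; inconclusive means mean below that limit but half or more replicates reach it; inactive means mean below it, under half of replicates reach it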;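 further: signal also drops with host cell toxicity which is not excluded here; 0% = plate median of DMSO wells and 100% = zero luminescence signal; higher percent means less beta-gal luminescence so fewer parasites; stock transfer was 50 nL into about 50 µL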
# AF4-AF9 inh: MLL-AF4/AF9 protein interaction inhibition; P42568; AlphaScreen, biotin-AF4 peptide binding to FLAG-AF9; inhibition, % at 10 µM; 350,000 tested, 0.47% active;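 active means every replicate reaching a set inhibition limit, whatever the replicate mean, cut at about 25% in these data; inconclusive means mean inhibition reaches that limit but some replicates miss it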;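 further: 0% = plate neutral control median and 100% = total signal loss; the record names both 10 and 1 µM as test concentration; the first replicate is given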
# Target sequence (P42568 whole entry, looked up): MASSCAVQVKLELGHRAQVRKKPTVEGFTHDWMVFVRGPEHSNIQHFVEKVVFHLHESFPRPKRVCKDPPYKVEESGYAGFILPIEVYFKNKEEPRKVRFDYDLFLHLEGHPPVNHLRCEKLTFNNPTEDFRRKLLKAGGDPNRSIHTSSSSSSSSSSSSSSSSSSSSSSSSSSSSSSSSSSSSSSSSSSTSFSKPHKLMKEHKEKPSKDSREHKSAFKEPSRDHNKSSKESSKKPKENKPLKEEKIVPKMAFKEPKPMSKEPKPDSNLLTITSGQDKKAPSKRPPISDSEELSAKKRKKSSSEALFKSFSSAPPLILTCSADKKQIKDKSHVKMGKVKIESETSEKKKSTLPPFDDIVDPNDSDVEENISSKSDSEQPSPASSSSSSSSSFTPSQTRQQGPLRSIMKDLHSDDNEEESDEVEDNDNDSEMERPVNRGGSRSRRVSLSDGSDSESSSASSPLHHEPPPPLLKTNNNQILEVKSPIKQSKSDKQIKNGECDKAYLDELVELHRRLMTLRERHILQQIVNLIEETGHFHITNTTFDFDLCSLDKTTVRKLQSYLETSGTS
# rRNA inh HTS OD600: further read-out of rRNA inh HTS, marked with its call; OD600 change, %; measured here: OD600 growth;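 optical density of the mix in the first replicate; 0 = DMSO median and -100 = no signal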
# rRNA inh HTS RFP: second read-out of rRNA inh HTS, no call of its own (marks repeat the call); RFP signal change, %; measured here: RFP humanized mutant strains;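 first replicate; 0 = DMSO median and -100 = no signal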
# Numbers without * were called inactive; i = inactive; ? = inconclusive; . = no result given.
Molecule | Beta apoptosis | Calb FLC | FGF22 binding | RanGTP-Imp inh | ALR inh | rRNA inh HTS | rRNA inh HTS OD600 | rRNA inh HTS RFP | T cruzi inh | AF4-AF9 inh
CC(C)(C)NC(=O)CCc1nnc(Cc2c[nH]c3ccccc23)o1 | 0 | 0 | i | -2.6 | -20 | . | . | . | -9 | -0.4
CCC(C)c1ccccc1NC(=O)C(C)OC(=O)CN1C(=O)NC(C)(C)C1=O (centres undefined) | 5 | -1 | i | 3.6 | -2 | 19 | 10 | 2.5 | 3 | -0.7
COc1ccc(NC(=O)C(c2cc3c(cc2[N+](=O)[O-])OCO3)N2CCN(C=O)CC2)cc1 (centres undefined) | -3 | -8 | i | 4.5 | 6 | 10 | 5 | -1.0 | 2 | -11
Cc1noc(C)c1COC(=O)c1ccc(F)c(S(=O)(=O)N2CCCCC2)c1 | 2 | 4 | i | -1.8 | -1 | -17 | -11 | 1.9 | -2 | -1.4
COc1cc(/C=N\NC(=O)c2ccc(Cn3nc([N+](=O)[O-])c(Cl)c3C)o2)ccc1O | 12 | -8 | . | -2.3 | 95* | . | . | . | -4 | .
O=S(=O)(c1ccc(N2CCN(CCO)CC2)nc1)N1CCOCC1 | 0 | 2 | i | 0.4 | 6 | 14 | 9 | 2.3 | 0 | ?
CCOC(=O)c1ccc(NC(=O)CCn2c(=O)oc3ccccc32)cc1 | 0 | 2 | i | 5.4 | 2 | -3 | -20 | 4.7 | 0 | -0.2
COc1ccc(NC(=O)CSc2ncnc3c2sc2ccccc23)c(OC)c1 | 8 | -4 | . | 2.4 | -1 | . | . | . | -14 | .
O=C(CCC(=O)N(CC(=O)NC1CCCC1)c1cccc(F)c1)Nc1nccs1 | 2 | -2 | i | 1.6 | . | 5 | 7 | -0.3 | 14 | 2.6
COc1ccc(C2CC(=O)C3=C(C2)Nc2ccccc2N(C(=O)C2CC2)C3c2cccnc2)cc1OC (centres undefined) | 6 | 3 | . | -1.1 | -8 | . | . | . | 9 | .
CCN(CC)C(=O)Cn1c(=O)n(CCCC(=O)NCc2ccccc2)c(=O)c2sccc21 | -2 | 2 | i | 3.6 | -5 | 7 | 4 | -2.0 | -14 | -3.5
CN(C)S(=O)(=O)c1cccn1-c1ncc(C(F)(F)F)cc1Cl | . | -1 | . | -1.4 | 2 | . | . | . | 4 | .
O=C(CN(C(=O)c1cccc([N+](=O)[O-])c1)C1CCCCC1)Nc1ccc(Cl)c([N+](=O)[O-])c1 | 20 | -1 | i | -2.2 | -1 | 14 | 10 | 3.8 | 8 | 3.4
CC1CCN(C(C)C(=O)Nc2cc(S(=O)(=O)N3CCCCC3)ccc2Cl)CC1 (centres undefined) | -17 | . | i | . | 0 | 0 | 10 | -0.4 | . | -0.1
CC1CCc2c(sc(/N=C/c3cccnc3)c2C(N)=O)C1 (centres undefined) | -2 | 12 | i | 4.0 | -17 | -1 | 1 | -1.3 | -7 | -3.8
CCOc1ccc(S(=O)(=O)Nc2cccc(Cl)c2)cc1 | 7 | -9 | . | 5.6 | -6 | . | . | . | 7 | .
Cc1cc(NC(=O)CCC(=O)N(Cc2cccs2)C(C(=O)NC2CCCC2)c2cccnc2)no1 (centres undefined) | 1 | 5 | . | -1.0 | -5 | . | . | . | 1 | .
O=C(NCCCO)c1cc2c([nH]c3ccccc32)c(-c2ccccc2)n1 | 11 | 4 | i | 0.7 | -10 | -22 | -22 | 2.7 | 17 | 0.7
Cc1ccccc1Cn1c(=O)[nH]c2ccccc21 | 3 | -7 | i | 0.9 | 12 | -5 | -8 | 2.9 | -2 | -9.2
Cc1ccc(S(=O)(=O)NCC(=O)N2CCOCCOCCOCCOCC2)cc1 | -3 | 3 | i | 5.5 | . | 5 | 9 | 0.7 | 0 | 3.9
CCCCCCn1c(CN2CCCCC2C)nc2c1c(=O)n(C)c(=O)n2C (centres undefined) | 0 | 16 | i | 0.2 | -23 | 7 | 7 | -0.3 | 9 | -47
N#Cc1cccc(NC(=O)CNC(=O)Cc2ccccc2)c1 | -5 | -1 | i | 2.3 | -2 | 3 | 6 | 1.2 | -3 | 0.4
CN(Cc1ccccc1)c1ncc(C=O)s1 | -2 | 8 | . | -1.9 | -6 | 5 | 4 | -1.5 | -16 | 2.0
c1ccc(CSc2nc3ncccn3n2)cc1 | -7 | . | i | . | . | 7 | 7 | 1.0 | . | -2.6
CCCCOC(=O)CCc1c(C)[nH]c(=O)c(C#N)c1C | -3 | -20 | . | -0.2 | . | . | . | . | -5 | .

# Overlap with the part before: 5 compounds, then new ones.
# Values in the order: Beta apoptosis, Calb FLC, FGF22 binding, RanGTP-Imp inh, ALR inh, rRNA inh HTS, rRNA inh HTS OD600, rRNA inh HTS RFP, T cruzi inh, AF4-AF9 inh
- CCCCCCn1c(CN2CCCCC2C)nc2c1c(=O)n(C)c(=O)n2C (centres undefined)
    0, 16, i, 0.2, -23, 7, 7, -0.3, 9, -47
- N#Cc1cccc(NC(=O)CNC(=O)Cc2ccccc2)c1
    -5, -1, i, 2.3, -2, 3, 6, 1.2, -3, 0.4
- CN(Cc1ccccc1)c1ncc(C=O)s1
    -2, 8, ., -1.9, -6, 5, 4, -1.5, -16, 2.0
- c1ccc(CSc2nc3ncccn3n2)cc1
    -7, ., i, ., ., 7, 7, 1.0, ., -2.6
- CCCCOC(=O)CCc1c(C)[nH]c(=O)c(C#N)c1C
    -3, -20, ., -0.2, ., ., ., ., -5, .
- CC(C)c1cccc(O)c(=O)c1
    -3, -4, i, 0.1, -15, 1, -7, 23, -5, 2.7
- CC(C)OC(=O)C1C2C=CC3(CN(C(C)c4ccc(Br)cc4)C(=O)C13)O2 (centres undefined)
    -6, 19, i, 1.9, -9, 8, 10, 1.2, 0, -4.0
- Nc1ncnc(Oc2cccc(C(F)(F)F)c2)c1[N+](=O)[O-]
    -3, 50, i, -0.8, -3, 0, 6, 0.9, -17, -0.7
- c1ccc(-c2nn3c(Cn4cnc5ccccc54)nnc3s2)cc1
    1, 33, i, -2.7, -29, -30, -26, -2.7, -8, 3.8
- COc1cc(-c2nn3c(-c4ccccc4)nnc3s2)cc(OC)c1OC
    7, 2, ., ., 19, ., ., ., 19, .
- O=C(CSc1nc2[nH]c(=O)cc(O)c2s1)Nc1ccc(Cl)c(C(F)(F)F)c1
    -13, ., i, ., 99*, 4, 12, 3.5, ., -3.1
- Cc1ccc(NS(=O)(=O)c2cc(C(=O)O)ccc2Cl)c(C)c1
    -4, 12, ., 0.8, -3, ., ., ., -10, .
- CC(C)OC(=O)CSc1nnc(-c2cccnc2)n1N
    1, -6, ., -3.8, -11, ., ., ., -9, .
- CC(C)Cc1cc(C(=O)Nc2c(F)cc(F)cc2Br)no1
    -1, -9, i, 5.3, ., -29, -41, -6.5, -7, -3.1
- CC(C(=O)N1CCN(c2ccccc2F)CC1)c1ccc([N+](=O)[O-])cc1 (centres undefined)
    3, 0, ., 6.6, 8, -2, 1, -1.2, 15, -0.2
- S=c1[nH]ccn1-c1cccc(Cl)c1Cl
    1, -9, i, -0.6, 55, -9, -4, -2.2, -8, -2.6
- CN(C(=O)CSc1nnc(-c2ccncc2)n1-c1ccccc1)C1CCS(=O)(=O)C1 (centres undefined)
    -1, -2, i, -1.3, 0, 5, 4, 0.8, -5, -8.9
- O=C(OCCN1CCN(C2=NS(=O)(=O)c3ccccc32)CC1)c1ccccc1F
    1, 4, i, 0.4, 26, 5, 7, 1.7, 0, -1.3
- O=C(Nc1ccc2c(c1)Cc1ccccc1-2)c1cccnc1
    9, 16, i, -1.1, -7, -4, 0, -3.1, 4, -1.0
- Cc1ccc([N+](=O)[O-])cc1Nc1nc(N2CCOCC2)nc(N2CCOCC2)n1
    3, 27, i, 2.7, -2, 11, 6, -0.6, 36, 2.5

# New compounds follow
# Values in the order: Beta apoptosis, Calb FLC, FGF22 binding, RanGTP-Imp inh, ALR inh, rRNA inh HTS, rRNA inh HTS OD600, rRNA inh HTS RFP, T cruzi inh, AF4-AF9 inh
- CC(C)(C)NC(=O)CN(CCN1CCOCC1)C(=O)CNS(=O)(=O)c1ccc(Cl)cc1
    -1, 3, i, -2.4, -12, ., ., ., 7, -0.3
- C[N+](C)(C)CCCN1C(=O)CCCC1=O
    -2, 3, ., 0.0, -10, ., ., ., -3, .
- COc1ccc(-c2nc(N)ncc2-c2ccccc2OC)c(O)c1
    -12, 1, i, 2.5, 24, -15, -11, -2.1, -19, 7.3
- CC(Sc1n[nH]c(=O)[nH]c1=O)C(=O)OCc1ccccc1 (centres undefined)
    -2, -4, ., 7.8, -1, ., ., ., 15, .
- CCOC(=O)CNC(=O)COc1coc(CN2CCN(Cc3ccccc3)CC2)cc1=O
    ., 1, i, 3.6, -6, 9, 11, -0.8, 3, -4.0
- COCCCNC(=O)c1c(NC(=O)C2COc3ccccc3O2)sc2c1CCCC2 (centres undefined)
    ., -1, ., -1.2, -2, ., ., ., 8, .
- Cc1ccc(S(=O)(=O)NCc2csc(C)n2)c(C)c1
    -1, 10, ., -1.6, -5, ., ., ., -8, .
- CCOC(=O)C1CCCN(c2c(NCCC(C)C)c(=O)c2=O)C1 (centres undefined)
    3, -3, i, 1.0, -19, 2, 3, 0.0, 0, -11
- O=C(NCC1CCCCC1)c1cc([N+](=O)[O-])ccc1N1CCOCC1
    -1, -5, i, 1.8, -2, -13, -18, -1.1, 3, 0.5
- COc1ccc(Cl)cc1NC(=O)c1cc(C)no1
    -5, -5, i, -2.5, -15, -2, 9, -2.6, -10, -0.5
- CCOC(=O)C1=NNC2C(=O)N(Cc3ccccc3)C(=O)C12 (centres undefined)
    2, 6, i, 4.3, -13, ., ., ., -9, -1.1
- CCCC/C(O)=C1\C(=O)CCCC1=NCCc1c(C)[nH]c2ccc(OC)cc12
    1, 13, i, 4.9, 3, -18*, -3.9*, 0.1*, 2, 8.0
- O=C(O)c1cc(=O)[nH]c2c(Cl)cccc12
    ., -5, i, 5.3, -15, 12, 1, -4.6, 1, -1.2
- CN(C)c1ccc(-c2noc(-c3ccccc3O)n2)cc1
    0, 9, ., 1.8, ., ., ., ., 0, .
- O=C(Oc1ccccc1C(=O)N1CCOCC1)c1cccc(Br)c1
    0, 2, ., -0.7, ., ., ., ., -14, .
- O=C(CCc1nc2ccccc2c(=O)[nH]1)NNC(=O)c1ccc(Cl)cc1
    ., 4, i, 1.3, -3, 4, 7, 0.1, 5, -0.5
- O=C(CCN1C(=O)NC2(CCCC2)C1=O)Nc1cccc(S(=O)(=O)N2CCOCC2)c1
    -1, ., i, ., 0, 2, 0, -3.0, ., -3.5
- O=C(N/N=C/c1c[nH]c2ccccc12)c1cc(Cl)ccc1O
    -10, 8, ., 3.1, 50, -9, -8, 0.7, 5, 3.6

# Not all compounds are listed; rates above refer to the full screens.
